Ecoli rRNA inh – reduced GFP signal of wild-type E. coli, primary screen, bacterial rRNA inhibitor project, GFP/RFP fluorescence, OD600, single point | E. coli WT GFP vs humanized-ribosome RFP mutants, 24 h; hits give low values; DMSO median 0, no signal -100 | GFP signal change (wild-type ribosome), % (concentration not given with the values) | 1.6% of 350,000 active;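 active = significant combined selectivity score with lowered wild-type GFP, culture density cut under 30%, mutant RFP and density less affected; inactive = any of these conditions unmet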; note: one replicate is shown; some compounds called inactive have numbers as strong as hits
Beta2AR agonist – beta2AR agonists driving receptor internalization, primary screen, cell-based, FAP fluorogen, flow cytometry; Beta-2 adrenergic receptor (Homo sapiens), P07550; Am2.2-beta2AR cells; reference of the scale not given here; response, % (test concentration not listed); 0.43% of 340,000 active; AID 504454, 2011;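 active = response above a set limit, near 3 SD of response in nonfluorescent compounds, cut at about 42% in these data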;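 note: stock transfer was 100 nL into about 11 µL; a reference agonist was the positive control; negative values mostly stem from fluorescent compounds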
Target sequence (P07550 whole entry, looked up): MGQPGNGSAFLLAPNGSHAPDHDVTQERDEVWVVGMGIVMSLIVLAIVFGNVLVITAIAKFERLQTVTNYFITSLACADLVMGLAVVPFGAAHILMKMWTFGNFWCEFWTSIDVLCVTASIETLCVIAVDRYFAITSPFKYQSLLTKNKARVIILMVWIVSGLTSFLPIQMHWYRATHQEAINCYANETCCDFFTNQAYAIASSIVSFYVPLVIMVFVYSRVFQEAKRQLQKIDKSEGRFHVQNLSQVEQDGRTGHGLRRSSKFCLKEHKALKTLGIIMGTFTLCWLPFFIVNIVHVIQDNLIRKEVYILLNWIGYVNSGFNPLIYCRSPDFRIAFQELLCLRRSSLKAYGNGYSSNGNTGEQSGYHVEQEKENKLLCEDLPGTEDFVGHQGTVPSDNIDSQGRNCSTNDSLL
Ecoli rRNA inh OD600 – recorded beside Ecoli rRNA inh, whose call it bears; OD600 change, %; measured here: OD600 growth;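 optical density of the mix in the first replicate; 0 = DMSO median and -100 = no signal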
Ecoli rRNA inh RFP – also measured in Ecoli rRNA inh; calls as there; RFP signal change, %; measured here: RFP humanized mutant strains;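 first replicate; 0 = DMSO median and -100 = no signal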
* = called active by the depositor; & = joins results of further samples. Only part of the results is shown. The share of hits here may be higher or lower than overall.

Ecoli rRNA inh,Ecoli rRNA inh OD600,Ecoli rRNA inh RFP,Beta2AR agonist,structure
3,-1,-0.1,0,COc1ccc(NC(=O)COC(=O)c2ccc(S(=O)(=O)N3CCCCCC3)cc2)c(OC)c1
-45,-66,-10,-1,CC1(C)Oc2c(ccc(O)c2CN2CCOCC2)C2=C1CCCC2
-18,-13,-6.1,3,COc1cc(C2CC(=O)Oc3ccc(C(C)(C)C)cc32)cc(OC)c1OC (stereo unspecified)
-3,-5,-12,15,Cc1cc2ccccn2c1C(=O)c1ccc(N/N=C/c2ccc(C(=O)O)cc2)c([N+](=O)[O-])c1
5,4,-1.5,8,COc1ccc(CCN2CC(C(=O)OCC(=O)NC(Cc3ccccc3)C(C)=O)CC2=O)cc1OC (stereo unspecified)
-19,-32,-5.0,17,CCN(CC)CCC(=O)N1C/C(=C/c2ccccc2)C(=O)/C(=C\c2ccccc2)C1
5,7,2.3,-55,CC(=O)Nc1cc2c(cc1Cl)-c1ccc(F)cc1C2O (stereo unspecified)
14,12,1.5,5,CCN(C[C@H]1N[C@@](CC)(C(=O)OC)[C@H]2C(=O)N(C)C(=O)[C@@H]12)C(=O)C1CCCCC1
1&13,-3&4,-2.7&4.0,5,C[C@H](CO)N1C[C@H](C)[C@@H](CN(C)S(C)(=O)=O)Oc2ccc(NC(=O)CCN3CCOCC3)cc2C1=O
-6,1,-1.8,-4,COc1ccc(NC(=O)CN2C(=O)NC3(CCCCCCC3)C2=O)cc1
-20,-20,-4.7,5,O=C(Oc1cccc2c(O)cccc12)c1ccccc1Cl
7,10,-3.8,5,CCN1C[C@@H]2[C@@H]3C(=O)N(C)C(=O)[C@@H]3[C@](CC)(C1=O)N2C(=O)c1ccccc1
13,8,3.3,13,Cc1ccc(NC(=O)OC(C)N2CCCCC2)cc1NC(=O)OC(C)N1CCCCC1 (stereo unspecified)
3,3,-0.1,-3,COc1ccc(C(=O)N2CCN(c3ccccc3)CC2)cc1S(=O)(=O)NC1CC1
1,10,-2.5,-12,CCCCN(C(=O)c1cc(S(=O)(=O)N2CCOCC2)ccc1F)c1c(N)n(CCCC)c(=O)[nH]c1=O
9,7,0.8,1,CC(=O)OCC1=C(C(=O)O)N2C(=O)[C@@H](NC(=O)Cc3ccccc3)[C@H]2SC1
4,13,-4.6,-5,CCN1C=C(C(C)=O)C(=O)CC1
-70,-65,-25,17,O=C(C(=O)c1cc(Br)ccc1O)c1cc(Br)ccc1O
20,14,5.2,-11,C=CCOc1ccc(/C=C/C(=O)OCC(=O)N2CCN(S(=O)(=O)c3ccc(C)cc3C)CC2)cc1
-5,-16,-1.8,1,Cc1ccc(C(=O)OCC(=O)c2c[nH]c3ccccc23)cc1S(=O)(=O)N1CCOCC1
-5,9,14,1,CC[C@]12c3[nH]c4cc(-c5ccco5)ccc4c3CCN1C(=O)[C@@H](CC(=O)NCc1ccc(OC)c(OC)c1)C[C@@H]2C(=O)N1CCN(C(=O)c2ccco2)CC1
1,7,2.7,5,CC(NC(=O)COC(=O)c1ccc(Br)o1)c1ccccc1 (stereo unspecified)
5,8,-0.3,11,COc1cccc(C(=O)NCC(=O)N2CCN(c3ccc(C(F)(F)F)cn3)CC2)c1
5,6,1.0,-11,COC1=C(Nc2ccccc2)C(=O)C(OC)=C(Nc2ccccc2)C1=O
9,6,7.9,2,COC1=NC(=C(c2ccccc2)c2ccccc2)OC1=O
5,11,-1.2,2,Cc1cccc(CC2(O)C(=O)Nc3ccccc32)n1 (stereo unspecified)
-45,13,44,6,O=S(=O)(O)c1cc(Cl)cc(N=Nc2ccc(O)cc2O)c1O
22,19,3.1,-7,COc1ccc(NC(=O)COC(=O)c2cc(C)oc2C)c([N+](=O)[O-])c1
-20,-30,-0.7,1,COc1ccc(C(=O)C(C)C(C)=O)c(OCc2ccccc2)c1OC (stereo unspecified)
4,4,0.0,0,Cc1ccc2sc(C)cc(=O)c2c1
7,4,-3.9,-1,CN1CC[C@@H]2C(=O)N3CCc4ccc(Br)cc4[C@@H]3C[C@@H]21
-3,-23,4.8,3,CCCS(=O)(=O)Nc1ccc(N2CCCCC2)c(S(=O)(=O)Nc2ccccc2OC)c1

Arranged by the number under Beta2AR agonist (ascending): some entries from above.
Ecoli rRNA inh,Ecoli rRNA inh OD600,Ecoli rRNA inh RFP,Beta2AR agonist,structure
22,19,3.1,-7,COc1ccc(NC(=O)COC(=O)c2cc(C)oc2C)c([N+](=O)[O-])c1
4,4,0.0,0,Cc1ccc2sc(C)cc(=O)c2c1
-20,-30,-0.7,1,COc1ccc(C(=O)C(C)C(C)=O)c(OCc2ccccc2)c1OC (stereo unspecified)

Next compounds follow.
Ecoli rRNA inh,Ecoli rRNA inh OD600,Ecoli rRNA inh RFP,Beta2AR agonist,structure
-28,-60,-9.2,0,CCCCN(C(C)=O)c1ccc2c(c1)C1CC2CCN1C(=O)OCc1ccccc1 (stereo unspecified)
-13&-1,-59&-6,11&13,2,C[C@H]1CN([C@@H](C)CO)C(=O)Cc2cc(NS(C)(=O)=O)ccc2O[C@@H]1CN(C)Cc1ccc(Cl)c(Cl)c1
1,4,-2.2,7,O=C1C2C3CCC(O3)C2C(=O)N1c1cc(OCC(F)F)cc([N+](=O)[O-])c1 (stereo unspecified)
9,17,-0.1,0,N#CC(=Nc1ccccc1)c1ccccc1
2,4,-3.2,-3,CN(C)C(=O)CCc1ccc2c3c([nH]c2c1)[C@]1(C)[C@@H](C(=O)N2CCCCC2)C[C@H](CC(=O)NCCC2=CCCCC2)C(=O)N1CC3
10,8,0.7,7,CN(C(=O)c1cccc(NC(=O)Cc2ccc(NC(=O)C3CCN(S(=O)(=O)c4cccc([N+](=O)[O-])c4)CC3)cc2)c1)C1CCC1
-4,6,-3.5,61*,COc1ccc2[nH]c3c4c(ccc3c2c1)C(=O)C=CC4=O
3,0,-1.0,2,Cc1ccc(S(=O)(=O)N(C)C)cc1NC(=O)COc1cccc(-n2cnnn2)c1
0,22,-0.2,10,O=C(CCCCC(=O)Sc1ccccc1)Sc1ccccc1
10,7,25,-11,O=S(=O)(O)c1cc2onnc2c2ccccc12
1,9,-2.2,2,COc1cc2oc(=O)cc(-c3ccc(-c4ccc(N(C)C)cc4)cc3)c2c(OC)c1OC
-12,-17,0.2,5,Cc1ccc(CNC(=O)COc2cccc3c2OC(C)(C)C3)cc1
10,10,2.6,0,Cc1c(N)cc(S(=O)(=O)O)cc1NC(=O)c1cccc([N+](=O)[O-])c1
-12,-10,-7.5,-4,Cc1ccc(NC(=S)N2CCC(C(=O)c3ccc(F)cc3)CC2)cc1C
-8,-31,-4.2,2,COc1cc(CN(C2CC2)S(=O)(=O)c2ccccc2Br)cc(OC)c1
19,5,3.5,22,COCC(=O)OC1CCn2c1nc1c2C(=O)C(C)=C(NC(C)=O)C1=O (stereo unspecified)
1,5,-1.2,4,Cc1ccc(NC(=O)CSc2nnnn2C2CC2)cc1S(=O)(=O)N1CCOCC1
-1,-1,3.0,-2,Nn1c(SCC(=O)NCCC2=CCCCC2)nnc1-c1cccnc1
5,4,-0.6,2,COc1ccc(S(=O)(=O)N2CCC3CC2c2cc(N4CCOCC4)ccc23)cc1 (stereo unspecified)
0,1,-0.5,5,Cc1cccc(NC(=O)COC(=O)c2ccc(S(=O)(=O)N3CCCC3)cc2)c1
7,-1,1.9,2,COc1cc2c(O)cc(C(=O)O)c(-c3cc(OC)c(OC)c(OC)c3)c2cc1OC
-30,-54,2.3,5,Cc1cccc([C@H]2[C@@H]3C=CC[C@@H](C)[C@@H]3C(=O)N2Cc2ccccc2)c1
-17,-15,6.1,24,CN(C)C(CNC(=O)C1CCN(S(=O)(=O)c2cc(Cl)ccc2Cl)CC1)Cc1ccccc1 (stereo unspecified)
4,-3,0.6,-5,CC1CCN(C(=O)COC(=O)c2ccc3c(c2)C(=O)N(Cc2ccco2)C3=O)CC1
11,11,-2.2,-1,CCn1c(SCCN2CCCCC2)nc2c1c(=O)n(C)c(=O)n2C
-12,-1,3.7,-8,O=C(NCCCN1CCOCC1)c1c(-c2ccccc2)sc2ccccc12
-11,-44,-22,16,O=C(c1cccs1)c1ccccc1Cc1cccs1
-4,-6,0.4,3,O=C(CSc1ncnc2sccc12)Nc1ccc(S(=O)(=O)N2CCOCC2)cc1
5,7,5.5,-24,CCCCn1c(N)c(N(CCOC)C(=O)CCNC(=O)NC23CC4CC(CC(C4)C2)C3)c(=O)[nH]c1=O
1,-9,2.5,3,CN(C)C(=O)C(Sc1ccc(S(=O)(=O)N2CCCC2)cn1)c1ccccc1 (stereo unspecified)
-14,-21,-5.8,-3,CCc1n[n+](CC(=O)c2ccccc2)c(N)s1
9,-29,-2.3,0,O=Cc1ccc(Sc2ncccn2)o1
-10,-24,1.6,3,Cc1ccc(S(=O)(=O)N2CC(O)C[C@H]2C(=O)OCC(=O)N2CCN(c3ccc(F)cc3)CC2)cc1C (stereo partly specified)
-14,-8,-3.1,-1,CC1CCCCCCC1OC(=O)c1ccccc1C(=O)O (stereo unspecified)
-9,-10,2.0,-1,COc1ccc(Cl)cc1C(=O)OCC(=O)NC1CCCC(C)C1C (stereo unspecified)
-7,-9,2.9,14,CCOC(=O)c1ccccc1NC(=O)COC(=O)C(Cc1c[nH]c2ccccc12)NC(C)=O (stereo unspecified)
4,7,0.5,8,CCOc1cc(C#N)ccc1OCC(=O)NNC(=O)CC1CCS(=O)(=O)C1 (stereo unspecified)
-6,7,1.6,92*,CC(=O)Nc1ccc(C=NN=C2c3ccccc3-c3ccccc32)cc1
3,0,3.1,1,COC(=O)[C@H](CCSC)NC(=O)Cn1cnc2c(NCc3ccccc3)ncnc21
-5,-23,-4.4,-7,COc1ccc2cc([C@H](C)C(=O)OCc3cn(CC(=O)c4ccc(O)cc4)nn3)ccc2c1

Molecules shown so far that have a nitro group on carbon:
Ecoli rRNA inh,Ecoli rRNA inh OD600,Ecoli rRNA inh RFP,Beta2AR agonist,structure
-3,-5,-12,15,Cc1cc2ccccn2c1C(=O)c1ccc(N/N=C/c2ccc(C(=O)O)cc2)c([N+](=O)[O-])c1
22,19,3.1,-7,COc1ccc(NC(=O)COC(=O)c2cc(C)oc2C)c([N+](=O)[O-])c1
1,4,-2.2,7,O=C1C2C3CCC(O3)C2C(=O)N1c1cc(OCC(F)F)cc([N+](=O)[O-])c1 (stereo unspecified)
10,8,0.7,7,CN(C(=O)c1cccc(NC(=O)Cc2ccc(NC(=O)C3CCN(S(=O)(=O)c4cccc([N+](=O)[O-])c4)CC3)cc2)c1)C1CCC1
10,10,2.6,0,Cc1c(N)cc(S(=O)(=O)O)cc1NC(=O)c1cccc([N+](=O)[O-])c1

Further compounds follow:
Ecoli rRNA inh,Ecoli rRNA inh OD600,Ecoli rRNA inh RFP,Beta2AR agonist,structure
-9,-5,7.5,-2,COCC(=O)n1nc(-c2ccccc2)nc1NCc1cccs1
-4,-3,0.1,6,COc1cc(CCc2ccccc2)c(C(=O)O)c(O)c1C/C=C(/C)CCC=C(C)C
1,0,0.5,3,O=C(Nc1ccccc1N1CCCC1)C1CCCO1 (stereo unspecified)
0,-1,0.8,11,COc1ccccc1/C=C/C(=O)OCC(=O)Nc1nnc(-c2ccccc2)o1
10,8,3.8,-7,CC(=O)OCC1CC(COC(C)=O)C(COC(C)=O)CC1COC(C)=O (stereo unspecified)
1,-13,-4.1,1,COc1cccc(OC)c1OC(=O)c1ccccc1
-12,-5,0.9,10,Cc1ccc(S(=O)(=O)N2CCCCC2)cc1C(=O)OC(C)C(=O)NCC1CCCCC1 (stereo unspecified)
13,1,-3.1,16,COc1ccc(-c2ccc3c(c2)C2CC3CCN2C(=O)OCc2ccccc2)cc1 (stereo unspecified)
-6,7,-1.2,3,CN(Cc1cccnc1)C(=O)c1cc(S(=O)(=O)Nc2ccccc2F)ccc1Cl
0,-2,-2.5,7,Cc1ccc(C)c(N2N=C(C(=O)OCc3nnc(-c4cccs4)o3)CCC2=O)c1
1,-1,2.7,-9,Cc1ccc(C)c(COC(=O)c2cccc(S(=O)(=O)N3CCCC3)c2)c1
-3,-6,2.6,10,COc1ccc(CN(C)C(=O)C(CCSC)NS(=O)(=O)c2ccc3c(c2)OCCO3)c(OC)c1OC (stereo unspecified)
5,2,0.5,2,CCCNC1(C(N)=O)CCN(Cc2ccccc2)CC1

Look-ups from the list:
In Beta2AR agonist, `COC1=NC(=C(c2ccccc2)c2ccccc2)OC1=O` has the entry 2
In Beta2AR agonist, `CN1CC[C@@H]2C(=O)N3CCc4ccc(Br)cc4[C@@H]3C[C@@H]21` has the entry -1
